GLA inh pH 4.5 – alpha-galactosidase A (human) inhibition, pH 4.5 | AID 1467 | purified enzyme, 4-MU-alpha-Gal fluorescence, pH 4.5 | activity change, negative = inhibition, % at 105 µM | 230,000 tested, under 10 active; inconclusive = small, poorly fitted or top-dose-only inhibition, or a rising curve; inactive = flat fitted curve, though single readings scatter; no compound was filed as active;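 further: 0% = full activity with enzyme and -100% = basal without enzyme; dose as in the result columns while the protocol names 77 µM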
Target sequence (P06280 whole entry, looked up): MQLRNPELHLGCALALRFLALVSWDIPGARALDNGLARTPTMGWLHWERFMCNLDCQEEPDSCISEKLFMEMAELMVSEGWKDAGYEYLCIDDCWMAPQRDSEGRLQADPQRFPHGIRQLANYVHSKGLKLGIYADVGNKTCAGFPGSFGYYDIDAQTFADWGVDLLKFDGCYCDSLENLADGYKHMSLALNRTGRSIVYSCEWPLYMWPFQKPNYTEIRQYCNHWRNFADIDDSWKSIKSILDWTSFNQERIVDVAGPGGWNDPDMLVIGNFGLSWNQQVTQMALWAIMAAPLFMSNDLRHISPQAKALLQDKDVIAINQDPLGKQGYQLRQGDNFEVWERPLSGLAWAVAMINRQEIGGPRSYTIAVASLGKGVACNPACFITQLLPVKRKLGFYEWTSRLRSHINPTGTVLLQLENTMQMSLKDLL
Rango complex inh – inhibitors of Rango-importin beta complex formation; Rango CFP/YFP FRET sensor + importin beta, 45 min; 0.031% of 340,000 active; Q14974; AID 540263; Potency, µM (top dose mostly 92.2 µM), for inactives: at the highest dose inhibition of complex formation; active = rising FRET ratio curve, often small or poorly fitted; inconclusive = mostly compound fluorescence or quenching in the first reads; inactive = flat curves in all reads;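 further: potency means the concentration at half of the fitted maximal effect; 0% = DMSO wells and 100% = buffer wells lacking importin beta; nearly all actives have a fitted effect of over 15% in size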
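FRET biosensor (snurportin 1 IBB flanked by EYFP and cerulean), 50 nM, with compound 5 min, then 0.125 microM importin beta in PBS, 1 mM DTT, 0.02% Tween-20, 0.1% BSA. CFP/YFP ratio read after 45 min at room temperature; pre-read flags interference.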
Rango release inh – prevents RanGTP from dissociating the Rango-importin beta complex; O95149+P62826; Biochemical FRET Rango-importin beta, RanGTP-induced dissociation; Potency, µM (titrated, usually from 46.1 µM), inactives show at the highest dose activity change, negative = inhibition; 0.071% of 340,000 active; AID 540253; active means falling FRET ratio curve, often poorly fitted, with flat reads before Ran was added; inconclusive means other falling curves, or compound fluorescence or quenching; inactive means flat or rising ratio curve;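 further: potency means the concentration at half of the fitted maximal effect; % of control where 0% means no effect; nearly all actives have a fitted effect of over 45% in size; -100% = wells without RanGTP and RCC1; the record marks most hits as doubtful in a second field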
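Compounds preincubate 5 min with complex of recombinant Rango and importin beta in PBS with 1 mM DTT. Ran (0.6 uM) loaded with 2 mM GTP plus 0.2 uM RCC1 starts dissociation; FRET is recorded 45 min later.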
miR-21 FLuc – miR-21 reporter, rising signal; HeLa miR-21 FLuc reporter, luciferase, 48 h; Potency, µM (top dose mostly 38.3 µM), inactives show at the highest dose reporter change, positive = more light; 340,000 tested, under 10 active; AID 2288; active = well fitted rising curve with a large enough effect; inconclusive = small, poorly fitted or top-dose-only effect; inactive = no such curve, though single readings can be large or run the other way;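 further: % of control where 0% means no effect; miR-21 action dims this reporter so a rising signal means less miR-21 action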
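HeLa cells endogenously expressing miR-21, stably carrying CMV-driven firefly luciferase with a downstream miR-21 binding site, 2000 cells/well. Titrations up to approximately 40 uM, 48 hours; luciferase luminescence read.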
* marks the source's active call; other numbers are inactive results; ? = inconclusive; . = no result given; & = joins results of further samples. A portion of the library; rates above refer to the full screens.

SMILES	GLA inh pH 4.5	Rango complex inh	Rango release inh	miR-21 FLuc
O=C(Nc1ncn[nH]1)c1cc(S(=O)(=O)Nc2ccc(Cl)cc2)ccc1Cl	-4	4.7%	-5%	-4%
COc1ccccc1CO/N=C/c1cccn1-c1nccc(N(C)C)c1C#N	-6	-1.5%	4%	-9%
Nc1nonc1-n1nnc(C(=O)N/N=C/c2cccnc2)c1CSC1=NCCS1	?	1.2%	0%	-1%
Cc1ccc(NC(=O)c2[nH]cnc2C(=O)NN)cc1	5	2.0%	4%	-1%
Cc1c(Cl)cccc1Nc1nc(N)nc(CSc2nc3ccccc3s2)n1	-14	-2.0%	5%	-16%&-16%
Cc1cc(=O)c(C(=O)O)nn1-c1ccccc1	-1	-0.1%	-6%	0%
O=C(Nc1cccc(S(=O)(=O)NC2=NCCCCC2)c1)c1cc(-c2ccccc2Cl)nc2ccccc12	-10	0.1%	-4%	16%
COc1ccccc1N1CCN(C(=O)C2CCN(S(=O)(=O)N3CCOCC3)CC2)CC1	2	-3.7%	2%	0%
O=C(CCCCCN1C(=O)[C@@H]2Cc3ccccc3CN2C1=O)Nc1ccccc1F	.	-4.1%	8%	23%
CC1(C)CC(=O)C(C=NCCN2CCN(CC(=O)Nc3ccc(F)cc3)CC2)=C(O)C1	2	-1.9%	2%	1%
CCOC(=O)C1CCN(c2c(NCc3ccc(N(C)C)cc3)c(=O)c2=O)CC1	2	-1.4%	11%	1%
C/C(=N\NC(=O)c1ccc(NS(=O)(=O)c2cccs2)cc1)c1ccccn1	-5	-1.0%	-5%	-22%
CCN(C(=O)Cn1cc(C(C)=O)c2ccccc21)c1ccccc1	3	-2.9%	-6%	-4%
COc1cccc(CNC[C@H]2O[C@@H](n3cnc(C(N)=O)n3)[C@H](O)[C@@H]2O)c1OCc1ccc(F)cc1Cl	.	0.3%	9%	.
COc1ccc(/C=N/NC(=O)c2cccnc2)c2ccccc12	.	-5.7%	0%	-3%
O=c1/c(=C/c2ccco2)sc2n1CN(c1ccccc1)CN=2	-2	2.6%	7%	8%
C#CCOCCOCCOCCNc1nc(N2CCOCC2)nc(N2CCN(C(=O)[C@H](CCCCN)n3cc(CCCC)nn3)CC2)n1	.	0.3%	-20%	.
Cc1cc(-c2ccccc2)nc(SCC(=O)c2cccc([N+](=O)[O-])c2)n1	4	-0.8%	1%	-1%
CC(Sc1nc2ccccc2[nH]1)C(=O)Nc1ccc2c(c1)OCCO2 (centres undefined)	2	?	0%	-7%
CCc1cccc(NC(=O)C2CCN(c3ncnc4sc(C)c(C)c34)CC2)c1	.	-1.3%	-12%	.
Cc1ccccc1Cn1cnc2ccccc2c1=O	-1	5.8%	16%	-1%
CCN(CCn1cccn1)C(=O)CCc1nnc(C2CCCCC2)o1	-1	0.5%	9%	-11%
CCOc1ccc(NC(=O)CN2C(=O)CSC(C)C2=O)cc1 (centres undefined)	-7	3.1%	-15%	5%
COc1ccc(/C(O)=C2/C(=O)C(=O)N(CCCN3CCOCC3)C2c2ccc(C(C)C)cc2)cc1 (centres undefined)	.	-0.6%	-10%	2%
Cc1ccc(S(=O)(=O)c2c(N)n(CCC(C)C)c3nc4ccccc4nc23)cc1	21	-2.5%	-9%	?

Overlap with the part before: 6 compounds, followed by the next part.
SMILES	GLA inh pH 4.5	Rango complex inh	Rango release inh	miR-21 FLuc
CCc1cccc(NC(=O)C2CCN(c3ncnc4sc(C)c(C)c34)CC2)c1	.	-1.3%	-12%	.
Cc1ccccc1Cn1cnc2ccccc2c1=O	-1	5.8%	16%	-1%
CCN(CCn1cccn1)C(=O)CCc1nnc(C2CCCCC2)o1	-1	0.5%	9%	-11%
CCOc1ccc(NC(=O)CN2C(=O)CSC(C)C2=O)cc1 (centres undefined)	-7	3.1%	-15%	5%
COc1ccc(/C(O)=C2/C(=O)C(=O)N(CCCN3CCOCC3)C2c2ccc(C(C)C)cc2)cc1 (centres undefined)	.	-0.6%	-10%	2%
Cc1ccc(S(=O)(=O)c2c(N)n(CCC(C)C)c3nc4ccccc4nc23)cc1	21	-2.5%	-9%	?
CN(C)S(=O)(=O)N(CC(=O)N1CCN(Cc2ccccc2)CC1)c1ccccc1	0	-3.2%	2%	1%
O=C(O)C1OC(C(=O)O)C2C1C(F)(F)C2(F)F (centres undefined)	4	-3.4%	-15%	-1%
Cc1nc2c3ccccc3n(CC(=O)c3ccc(F)cc3)c(=O)n2n1	5	-3.5%	-17%	2%
COCCCN1C(=O)c2ccc(C(=O)OCC(=O)N(C)c3ccccc3)cc2C1=O	6	-0.3%	-1%	1%
Cc1ccc(C(C)C)c(OC/C(O)=C(\C#N)c2nc3ccccc3[nH]2)c1	-8	-2.7%	-9%	4%
Cc1cc(SCC(=O)Nc2ccccc2)nc(C)n1	6	-3.3%	-6%	-11%
CC(=O)c1ccc(N2CCN(C(=O)c3ccc4[nH]c(C)c(C)c4c3)CC2)cc1	.	-3.3%	-16%	.
COc1ccc2c(c1)-c1nc(/N=C/c3ccc(O)cc3)sc1CC2	-5	2.7%	2%	-22%
O=C(Nc1ccc(N2CCOCC2)c(S(=O)(=O)Nc2cc(Cl)ccc2Cl)c1)c1cccnc1	-19	0.6%	16%	1%
CN(c1ccccc1)S(=O)(=O)c1cccc(NC(=O)CSc2ncn[nH]2)c1	3	-0.5%	-7%	5%
CCN1CCN(C(c2ccc(OC)cc2)c2nnnn2Cc2ccc3c(c2)OCO3)CC1 (centres undefined)	11	-2.1%	-5%	-2%
Cc1cccc(N(C(=O)CCC(=O)Nc2cccnc2)C(C(=O)NC2CCCC2)c2ccncc2)c1 (centres undefined)	-10	-2.2%	-7%	27%
CCC(=O)N(CC)Cc1cc(=O)[nH]c2ccccc12	0	-1.3%	-15%	-2%
CCOC(=O)c1ccc(NC(=O)Nc2ccn(C)n2)cc1	-8	0.2%	2%	-18%
CC#CCN(CC#CC)S(=O)(=O)c1ccc(S(=O)(=O)N2CCOCC2)cc1	-3	-1.7%	1%	0%
COc1ccccc1CNC(=O)N1CCN(c2ccccc2Cl)CC1	.	?	-14%	-7%
COCCSc1nnc(NC(=O)c2cc(OC)c(OC)cc2[N+](=O)[O-])s1	6	-4.5%	-5%	-3%
O=C(COC(=O)CCc1nc2ccccc2s1)Nc1nc(-c2ccccc2)cs1	-12	-4.9%	-21%	-38%
CCCc1nnc(SCC(=O)O)n1/N=C/c1ccc2c(c1)OCO2	6	-3.8%	-13%	-9%
Cc1cc(-c2ccccc2)nc(N2CCC(C(=O)NC34CC5CC(CC(C5)C3)C4)CC2)n1	3	0.8%	-10%	-17%
Cc1ccc(S(=O)(=O)N2CCC(C(=O)NC3CC(C)(C)NC(C)(C)C3)CC2)cc1	.	-0.5%	13%	-6%
CCOc1ccc(NC(=S)N(CCCN2CCCC2)Cc2cccn2Cc2ccc(Cl)cc2)cc1	3	1.8%	1%	0%
Cn1c(COc2ccc(Cl)cc2)nnc1SCC(=O)NC1CCCC1	.	-6.4%	-11%	2%
Fc1ccc2[nH]c3c(Cl)ncnc3c2c1	-5	0.1%	-18%	19%
COC(=O)c1c(C)oc(C)c1S(=O)(=O)NCc1ccc(OC)cc1	5	-1.8%	-5%	-2%
SMILES	GLA inh pH 4.5	Rango complex inh	Rango release inh	miR-21 FLuc
CCOc1cc(C(=O)NCC(C)CN(C)C)cc(OCC)c1OCC (centres undefined)	4	2.1%	3%	1%
CCOC(=O)c1nn(-c2ccc3ccccc3c2)cc1O	0	1.1%	-10%	-56%
Cn1cc(CNC(=O)C2CCCCC2)cn1	1	0.0%	-12%	-10%
CCc1nnc(NC(=O)CSc2nnc(Cc3ccccc3)n2-c2ccccc2)s1	-6	3.5%	2%	4%
Cc1ccccc1CC(=O)NCCN1CCOCC1	.	-2.9%	0%	-8%
Cc1cccc(CCNC(=O)C2CCN(S(=O)(=O)c3c(C)nn(C)c3C)CC2)c1	-1	0.6%	-6%	-2%
CN(C)CCC1Sc2ccccc2Oc2ccccc21 (centres undefined)	-2	3.1%	-14%	-13%
O=C(O)c1cnc(-c2ccccc2)nc1Sc1ccccc1	10	2.3%	-2%	-2%
CC(=O)Nc1ccc(Nc2ncnc(N)c2[N+](=O)[O-])cc1	-8	0.1%	-5%	0%
CC(Sc1ccccc1)C(=O)N1CCN(S(=O)(=O)c2ccccc2C(F)(F)F)CC1 (centres undefined)	.	0.3%	3%	-4%
COC(=O)c1cn(C(=O)c2cc(OC)cc(OC)c2)c2ccccc12	.	0.5%	0%	-3%
O=C(N/N=C\c1cccnc1)c1ccc(Cl)cc1Cl	.	-3.3%	6%	-13%
Cc1ccc(C(=O)N/N=C\c2ccc(OC(=O)c3cccc(F)c3)cc2)cn1	.	-0.1%	15%	0%
COc1ccc(C(C(=O)NC2CCCC2)N(Cc2ccccc2)C(=O)c2snc(C(N)=O)c2N)cc1OC (centres undefined)	.	0.7%	1%	0%
CC(Sc1ccc(S(=O)(=O)N2CCOCC2)cn1)C(=O)Nc1ccc(Cl)cc1Cl (centres undefined)	.	-1.4%	11%	.
CCOC(=O)N1CCC(N(CCN(C)C)C(=S)Nc2ccc(Oc3ccccc3)cc2)CC1	-10	3.4%	7%	-2%
CCN(c1nc(C)cc(OC)n1)S(=O)(=O)c1ccccc1	-5	-3.0%	16%	-3%
COC(=O)c1ccc(NC(=O)CCc2nnc3ccc(N4CCC5(CC4)OCCO5)nn23)cc1	.	3.6%	?	-1%
CN(C)c1ccc(C=C2SC(=S)NC2=O)cc1	.	?	?	.
Cc1cccc(CCNC(=O)COc2cc(=O)n(C)c3ccccc23)c1	4	-3.3%	-13%	6%
CCN(C(=O)COC(=O)c1cc([N+](=O)[O-])ccc1N1CCOCC1)C1CCCCC1	.	-0.5%	-9%	.
CN(C)S(=O)(=O)n1cnc([C@@H]2[C@@H]3C(=O)OC[C@@H]3C[C@]23N=CN(Cc2ccccc2)C3=O)c1	.	0.5%	-18%	.
CCOC(=O)CC1C(=O)NC2CCCCC2N1C(=O)Nc1ccc(Cl)cc1 (centres undefined)	-16	0.7%	-1%	-23%
COc1ccc(Cl)cc1-n1c(=S)sc2c(=O)[nH]c(SCC(=O)C(C)(C)C)nc21	.	-1.5%	12%	11%
CC(C)CNC(=O)CSc1nnc(-c2cccc(S(=O)(=O)N3CCCCC3)c2)o1	2	3.6%	10%	1%

Some of the entries above in another layout.
molecule | GLA inh pH 4.5 | Rango complex inh | Rango release inh | miR-21 FLuc
CN(C)c1ccc(C=C2SC(=S)NC2=O)cc1 | . | ? | ? | .
Cc1ccccc1CC(=O)NCCN1CCOCC1 | . | -2.9% | 0% | -8%
Cc1cccc(CCNC(=O)COc2cc(=O)n(C)c3ccccc23)c1 | 4 | -3.3% | -13% | 6%
CN(C)S(=O)(=O)n1cnc([C@@H]2[C@@H]3C(=O)OC[C@@H]3C[C@]23N=CN(Cc2ccccc2)C3=O)c1 | . | 0.5% | -18% | .

Next part.
SMILES	GLA inh pH 4.5	Rango complex inh	Rango release inh	miR-21 FLuc
O=C1CC(Cc2ccccc2)C(=O)N1c1ccc(Cl)cn1 (centres undefined)	3	3.3%	-14%	-1%
CCCCCC/C=N/Nc1nnc(Cc2ccccc2)c(=O)[nH]1	.	-0.3%	-1%	-7%
COc1cc(OC)cc(C(=O)NNC(=O)c2ccccc2Br)c1	1	0.0%	7%	-4%
COc1ccc2[nH]c3c(c2c1)CCN1C(=O)N([C@@H](C)C(=O)NC2CCCCC2C)C(=O)[C@]31C (some centres undefined)	.	-1.8%	-10%	4%
N#Cc1c(NC(=O)C2CC(Cl)=CCC2C(=O)O)sc2c1CCCCC2 (centres undefined)	7	5.5%	0%	0%
CC1(C)CC(=O)c2c(n(-c3cccc4ccccc34)ccc2=O)C1	6	-1.7%	-11%	-1%
CC(NC(=O)C1CCC(CNS(=O)(=O)c2ccc3c(c2)C(C)(C)C(=O)N3C)CC1)c1ccccc1 (centres undefined)	.	3.0%	12%	15%
